NPYLR7 agonist = activates Aedes aegypti NPYLR7 receptor | HEK293T NPYLR7/Galpha15, GCaMP6s calcium fluorescence | hit rate 0.15% among 270,000 | AID 1259423 | activation, % at 10 µM; in the data active means activation above about 40%;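 further: 0% = vehicle and 100% = reference agonist at the receptor; some compounds past the cut are filed as inactive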
NPYLR7 agonist max-min = further read-out of NPYLR7 agonist, marked with its call; activation, %; measured here: Max-Min RFU normalised activation; some inactives read as strong as hits;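 span of the calcium signal over five minutes; 0% = vehicle and 100% = native peptide agonist; compound fluorescence can raise it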
Starred values were filed as active, the others as inactive; & = joins results of further samples. Not all compounds are listed; count on the stated rates, not on these rows.

SMILES	NPYLR7 agonist	NPYLR7 agonist max-min
c1cnc(Sc2ccc(CNCc3noc(C4CCCO4)n3)o2)nc1 (stereo not drawn)	0	-4
Cc1cccc(NC(=O)Cn2ccc3ccn(Cc4ccccc4C)c3c2=O)c1	-7	-7
CCSc1nnc(SCC(=O)Nc2nnc(C(C)C)o2)s1	2	2
O=C(c1ccc(-c2cccc(C(F)(F)F)c2)o1)N1CCN(S(=O)(=O)c2ccccc2F)CC1	1	-2
CC(=O)NCCNc1nc(NCC2CC2)nc2cc(-c3ccccc3)sc12	1	0
CCn1ccc(C(=O)Nc2sccc2C(=O)NC)n1	-1	-4
CCOC(=O)C(c1cc(C)cc(C)c1)C1C=CC(NC(=O)c2cccc(OC(F)(F)F)c2)C1 (stereo not drawn)	3	8
O=C(NCC1CC1)C1CCCN(C(=O)C2(c3ccccc3F)CC2)C1 (stereo not drawn)	-4	-5
CCCC(=O)NCCc1c2n(c3ccc(OC)cc13)Cc1ccccc1-2	2	-11
CCn1nc(C(=O)O)c2c1CCC(NCc1c(OC)cccc1OC)C2 (stereo not drawn)	19	16
Cc1ccc2[nH]cc(CN3CCC(n4cc(CN5CCOCC5)nn4)CC3)c2c1	21	9
O=C1CSC2=NCN(c3ccccc3)CN12	1	2
O=C(Nc1c(-c2ccccc2)nc2ccccn12)C1CCCCC1	-5	-6
CC(C)N1CCN(C(=O)CCc2csc(N)n2)CC1C (stereo not drawn)	5	0
CCCCCCCCCC(=O)N(Cc1ccc(OC)c(OS(=O)(=O)c2cccc(C(F)(F)F)c2)c1)Cc1ccco1	2	-4
CCN1C(C(=O)c2ccccc2)=C(NC(=O)COc2ccc(C)cc2)c2ccccc2S1(=O)=O	7	6
Cc1ccn(-c2ccc(N3CCN(C(=O)c4ccc(C(C)(C)C)cc4)CC3)nn2)n1	-3	-14
Oc1ccc(-c2noc(/C=C/c3ccc(Cl)cc3)n2)cc1	0	-1
CC(C)C(=O)N(CCN(C)C)Cc1nccn1Cc1ccc(Cl)c(Cl)c1	4	12
N#CC(C=Nc1ccc2c(c1)OCO2)c1nc(-c2ccc3c(c2)OCO3)cs1 (stereo not drawn)	0	6
COCCOC(=O)CSc1ncn[nH]1	4	4
CCc1cnc(C)nc1NCCNc1nc(C)cc(=O)[nH]1	1	-2
CC(=NNC(=O)C1CCCCC1)c1ccccc1O	1	-3
COc1ccc(CCC(=O)N2CCCN(C(=O)C(C)NC(=O)c3ccco3)CC2)cc1 (stereo not drawn)	0	16
O=C(CSc1nnnn1C1CCCC1)N(Cc1ccccc1F)C1CC1	6	-2

The closing four compounds of the section above open the next one:
SMILES	NPYLR7 agonist	NPYLR7 agonist max-min
CCc1cnc(C)nc1NCCNc1nc(C)cc(=O)[nH]1	1	-2
CC(=NNC(=O)C1CCCCC1)c1ccccc1O	1	-3
COc1ccc(CCC(=O)N2CCCN(C(=O)C(C)NC(=O)c3ccco3)CC2)cc1 (stereo not drawn)	0	16
O=C(CSc1nnnn1C1CCCC1)N(Cc1ccccc1F)C1CC1	6	-2
CCOC(=O)C1(Cc2ccccc2C(F)(F)F)CCN(C(=O)C2CC23CCC3)CC1 (stereo not drawn)	3	2
CC1=C(C)OC2=C(O1)Oc1c(cc(C#N)nc1N)C21CCSCC1	23	20
CCC(C(=O)N1CCN(c2ccc3nnc(-c4ccco4)n3n2)CC1)c1ccccc1 (stereo not drawn)	-6	-8
CCCN(CCC)c1cc(Cl)nc(SCc2cccc(C(=O)N3CCC4(CC3)OCCO4)c2)n1	-2	6
C=CCn1c(=O)c2c(nc3n(-c4ccccc4Cl)c(C)cn23)n(C)c1=O	-1	5
CCCCn1c(=O)[nH][nH]c1=S	-2	-3
Cc1cc(C)cc(NS(=O)(=O)CC23CCC(CC2=O)C3(C)C)c1 (stereo not drawn)	6	3
CN(C)c1ccc(-c2nnc(NC(=O)C(Cc3ccccc3)NC(=O)c3cc(Cl)cc(Cl)c3)s2)cc1 (stereo not drawn)	-7	3
CCN(CC)C(=O)Cn1cc(SCC(=O)NCc2ccccc2)c2ccccc21	2	-3
Cc1onc(-c2c(Cl)cccc2Cl)c1C(=O)Nc1ccc(F)c(F)c1	-6	-7
COc1ccc(OC)c(NC(=O)Cn2nc(SC)c(-c3nc(-c4ccccc4)no3)c2N)c1	-9	-17
O=C(NCc1cccnc1-n1ccnc1)c1ccc(-c2ccccc2)[nH]1	4	3
CC1Sc2nc(-c3ccccc3)cn2N=C1c1ccc(F)cc1 (stereo not drawn)	3	3
COC(=O)c1ccc(-c2nc(CN3CCC4(CC3)OCCO4)cs2)cc1	4	2
CSc1ccc(C(=O)NCc2cccnc2N2CCOCC2)cc1	0	-5
c1ccc2[nH]c(SCCSc3nc4ccccc4[nH]3)nc2c1	-2	-5
Cc1ccc(-n2c(=O)[nH]c3c(C(N)=O)nc(C(C)C)nc32)cc1C	-6	-6
Cn1ncc([N+](=O)[O-])c1C(=O)Nc1ccc2nc(-c3ccccc3)[nH]c2c1	-4	-4
CCCCC(COC)NC(=O)C(=O)Nc1c(F)cccc1F (stereo not drawn)	1	0
COc1ccc(NC(=S)N2CCC(C(=O)NC(c3ccccc3)c3ccc4ccccc4n3)CC2)cc1 (stereo not drawn)	4	-8
CC(C)Sc1n[nH]c(=S)s1	-1	-1
Cn1c(Cn2c(=O)sc3ccccc32)nnc1SCc1ccccc1	9	8
Cc1ccc(S(=O)(=O)CCC(=O)N2CCCC2C2CCCCC2)cc1 (stereo not drawn)	-6	635
Nc1ccc(N2CCCC2)c(C(=O)NCc2cccnc2)c1	3	2
O=C1NCC(C(=O)Nc2ncc(Cc3ccc(F)cc3)s2)N1 (stereo not drawn)	-1	-3

Retrieved by compound from the entries so far, six records:
SMILES	NPYLR7 agonist	NPYLR7 agonist max-min
Cn1ncc([N+](=O)[O-])c1C(=O)Nc1ccc2nc(-c3ccccc3)[nH]c2c1	-4	-4
Cc1cc(C)cc(NS(=O)(=O)CC23CCC(CC2=O)C3(C)C)c1 (stereo not drawn)	6	3
CCCCn1c(=O)[nH][nH]c1=S	-2	-3
CCOC(=O)C1(Cc2ccccc2C(F)(F)F)CCN(C(=O)C2CC23CCC3)CC1 (stereo not drawn)	3	2
CC1Sc2nc(-c3ccccc3)cn2N=C1c1ccc(F)cc1 (stereo not drawn)	3	3
CSc1ccc(C(=O)NCc2cccnc2N2CCOCC2)cc1	0	-5

Given as labelled records: part of the list above
CCN(CC)C(=O)Cn1cc(SCC(=O)NCc2ccccc2)c2ccccc21
  NPYLR7 agonist = 2	NPYLR7 agonist max-min = -3

Cc1onc(-c2c(Cl)cccc2Cl)c1C(=O)Nc1ccc(F)c(F)c1
  NPYLR7 agonist = -6	NPYLR7 agonist max-min = -7

COc1ccc(OC)c(NC(=O)Cn2nc(SC)c(-c3nc(-c4ccccc4)no3)c2N)c1
  NPYLR7 agonist = -9	NPYLR7 agonist max-min = -17

The list goes on.
SMILES	NPYLR7 agonist	NPYLR7 agonist max-min
CCc1cc(=O)[nH]c(-n2nc(C)cc2NC(=O)c2cc(=O)c3ccccc3o2)n1	0	-4
CCCc1cc(C(=O)OC)c2ccccc2n1	0	-2
O=C(C1CCC(=O)N1S(=O)(=O)c1ccc(Cl)cc1)N1CCCCC1 (stereo not drawn)	2	0
CCc1noc(C)c1C(=O)OCC(=O)c1cc(C)n(C2CC2)c1C	17	13
CC1CCN(C(=O)C2CCN(Cc3c(-c4ccco4)nc4ncccn34)CC2)CC(C)(C)C1 (stereo not drawn)	1	21
O=C(NCCc1cccs1)C1CCN(C(=O)c2ccccc2)CC1	3	-1
CC(C)(C)C(=O)N1CCCC(OCc2ccccc2Cl)C1 (stereo not drawn)	-10	-3
COCC(=O)Nc1ccc2c(c1)N(C(=O)c1ccco1)CC2	3	5
CCC(C)NC(=O)c1ccc(Cl)c([N+](=O)[O-])c1 (stereo not drawn)	-1	-3
Cc1cccc(C)c1NC(=O)Nc1ccc(N2CCCC2)c(C(=O)NCCc2ccccc2)c1	1	1
COc1ccc(-c2nn(-c3ccccc3)cc2CN2CCC(OC)CC2)c(F)c1	-9	-10
c1ccc2[nH]c(-c3ccc(OCc4nc(CC5CC5)no4)cc3)nc2c1	16	6
COC1CCC(C(=O)c2ccc3nc4c(cc3c2)CCCO4)CC1 (stereo not drawn)	10	2
COCCCN(CC(=O)N(CCc1c[nH]c2ccccc12)Cc1ccc(C(F)(F)F)cc1)C(=O)c1ccc(Br)cc1	20	20
Cc1ccccc1CCC1CCCN(C(=O)c2cc(=O)n(C)c(=O)n2C)C1 (stereo not drawn)	2	-1
CCOC(=O)N1CCN(CC(=O)N2N=C(c3ccccc3Cl)CC2c2ccccc2)CC1 (stereo not drawn)	-1	-4
CCOC(=O)Cn1c(C2CC(=O)N(c3cc(OC)ccc3OC)C2)nc2ccccc21 (stereo not drawn)	-2	0
CCCC12CN(C(=O)c3cc([N+](=O)[O-])ccc3Oc3ccc(OC)cc3)CC1C(=O)NC(=O)N2 (stereo not drawn)	-3	-10
O=C(c1ccc(NCc2ccncc2)cc1)N1CCCC2(CCNC2)C1 (stereo not drawn)	15	5
COCC(c1ccccn1)N(C)C(=O)CC12CC3CC(CC(C3)C1)C2 (stereo not drawn)	-7	-14
O=C(Nc1nc2ncccc2cc1-c1ccccc1)c1ccccc1	2	8
Cc1ccc(C)c(NC(C)C(=O)Nc2ccc(Cl)cn2)c1 (stereo not drawn)	1	0
Cc1cccc(CNC(=O)C(C2CCCC2)N2CCN(C(=O)c3ccc(F)cc3)CC2)c1 (stereo not drawn)	0	-1
Cc1cc(N2N=C(c3ccccc3)CC2c2ccccc2)nc(-c2ccccc2O)n1 (stereo not drawn)	5	4
COc1ccc(CC(=O)N2C[C@H](C(N)=O)[C@H]3c4ccccc4N(CC(=O)N(C)C)C(=O)[C@]32C)cc1	10	21
SMILES	NPYLR7 agonist	NPYLR7 agonist max-min
CN(CCCN1c2ccccc2CCc2ccccc21)C(=O)Cc1ccc2ccccc2c1	-11	-16
O=C1C(C(c2ccc([N+](=O)[O-])cc2)N2CCCCC2)Sc2nc(-c3ccco3)nn21 (stereo not drawn)	1	0
O=C(NC(=S)NCCO)c1ccco1	-1	-3
O=C(C1CCC1)N1CCN(c2nc(-c3ccco3)nc3cc(Cl)ccc23)CC1	-1	12
CCCCCOc1ccc(C(=O)NCCc2ccncc2)cc1OCCCCC	-8	-14
O=C(c1nc(N2CCCC2)nc2c1CCCC2)N1CCCCC1CCc1ccccn1 (stereo not drawn)	17	8
COCC1CCCN(C(=O)CCC2(Cc3cc(OC)ccc3F)CCC(=O)N2)C1 (stereo not drawn)	1	-2
COc1cccc(-c2cc(-c3ccc(C(=O)NCCc4ccc(F)cc4)cc3)[nH]n2)c1	21	15
CCn1cc(C(CC(=O)N2CCN(Cc3ccccc3)CC2)c2ccc3c(c2)OCO3)c2ccccc21 (stereo not drawn)	-2	7
CCC(C)C1NC(=O)C(CCNCS(=O)(=O)O)NC(=O)C(NC(=O)C(CCNCS(=O)(=O)O)NC(=O)C(NC(=O)C(CCNCS(=O)(=O)O)NC(=O)CCCCC(C)C)C(C)O)CCNC(=O)C(C(C)O)NC(=O)C(CCNCS(=O)(=O)O)NC(=O)C(CCNCS(=O)(=O)O)NC(=O)C(C(C)CC)NC1=O (stereo not drawn)	-11&-4	-14&-5
CCc1nc(Nc2cccc(C(F)(F)F)c2)c2ccc(Cl)cc2n1	30	38
Cc1ccc2[nH]c(CN(C)Cc3nnc(-c4ccccc4)o3)nc2c1C	-2	-6
COc1ccc2[nH]c3c(c2c1)CCN(C(=O)c1sc(Cl)c(Cl)c1Cl)C3c1ccc(COC(C)=O)o1 (stereo not drawn)	11	0
CCCCC(NC(C)=O)C(=O)N(C)CCc1ccc(OC)c(OC)c1 (stereo not drawn)	-6	-11
FC(F)(F)Cn1c(-c2ccccc2)cn(CN2CCOCC2)c1=S	1	-1
CCOc1ccc(C(=O)n2cnnc2N)cc1	2	0
OC(COc1cc(Cl)c(Cl)cc1Cl)CN1CCN(c2ncccn2)CC1 (stereo not drawn)	0	-2
O=C(C1CCCCC1)N1CCN(c2cc(Oc3ccc(F)c(F)c3)ncn2)CC1	7	6
Cn1ncc(C(=O)N(Cc2nc3cc(Cl)ccc3o2)C2CCCC2)c1Cl	-1	-11
Cc1cc(NC(=O)CN2CCCc3c2[nH]c2ccccc32)nn1-c1ccccc1	-5	-5
COc1cccc2c(C)c(C(=O)NC3CCC4(CC3)OCCO4)oc12	-6	-7
O=C(NCCn1ncc2c(=O)n(Cc3ccc(Cl)cc3)cnc21)c1cc2ccccc2o1	-4	-9
Cc1ccnc(SCc2cc(=O)c(OC(=O)c3ccccc3[N+](=O)[O-])co2)n1	-10	-8
CC(C)CN1C(=O)N(Cc2ccccc2)C2(CCN(C3CCOCC3)CC2)C1=O	17	5
CC(C)N(Cc1cnn(C)c1)C(=O)CCSc1ccc2c(c1)OCCO2	6	3
SMILES	NPYLR7 agonist	NPYLR7 agonist max-min
c1cc(-c2nc(CN3CCSC4COCCC43)no2)cs1 (stereo not drawn)	1	1
Cc1nn(-c2ccc(N3CCCC3)nn2)c2c1C(c1ccc(O)c(O)c1)CC(=O)N2 (stereo not drawn)	-14	-23
CC(C)(C)OC(=O)N1CCN(C(=O)/C=C/c2ccc(Cl)cc2)CC1	-5	-6
CC(c1cc(Cl)ccc1Cl)n1nccc1N (stereo not drawn)	-4	-6
CCOCCCN1C(=O)C(=Cc2ccccc2O)NC1=S	120*	102*
CCOc1cc(/C=N\n2cnnc2)ccc1OCc1ccccc1C#N	3	3
CN(c1nc(N)c([N+](=O)[O-])c(N(C)C2CCCCC2)n1)C1CCCCC1	7	4
Cc1ccc(OCC2CN(C(=O)Cc3ccccc3C)CCO2)cc1 (stereo not drawn)	18	18
CC1CCN(Cc2csc(NC(=O)c3ccc(Br)cc3F)n2)CC1	1	0
CC(C)(C)NC(=O)Cn1nc(-c2ccccc2)c2sc(N3CCCCC3)nc2c1=O	-2	-8
CCOCCCn1c(SCC(=O)NCc2ccco2)nc2cc(C(=O)OCC)ccc21	6	7
CN(Cc1nc2ccccc2s1)Cn1nc(-c2ccccc2)n(C)c1=S	0	-1
Cc1cc(CNC(=O)NC2CCCC2)cc(C)c1O	4	2
